hNpr1 antagonist: antagonists of human natriuretic peptide receptor Npr1; P16066; HEK293 hNpr1 GloSensor cGMP, ANP-stimulated luminescence; Potency, µM (highest dose often 46.3 µM), for the others: at the top dose activity change, negative = inhibition, hits mostly inhibitors; actives 1.6% (n = 76,000); active = well fitted inhibition curve with a large enough effect; inconclusive = small, poorly fitted or top-dose-only effect; inactive = no such curve, though single readings can be large or run the other way;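 also: nearly all actives have a fitted effect of over 60% in size; nearly all hits also lower the signal before the agonist is added; a reference antagonist and vehicle were the controls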
Target sequence (P16066 whole entry, looked up): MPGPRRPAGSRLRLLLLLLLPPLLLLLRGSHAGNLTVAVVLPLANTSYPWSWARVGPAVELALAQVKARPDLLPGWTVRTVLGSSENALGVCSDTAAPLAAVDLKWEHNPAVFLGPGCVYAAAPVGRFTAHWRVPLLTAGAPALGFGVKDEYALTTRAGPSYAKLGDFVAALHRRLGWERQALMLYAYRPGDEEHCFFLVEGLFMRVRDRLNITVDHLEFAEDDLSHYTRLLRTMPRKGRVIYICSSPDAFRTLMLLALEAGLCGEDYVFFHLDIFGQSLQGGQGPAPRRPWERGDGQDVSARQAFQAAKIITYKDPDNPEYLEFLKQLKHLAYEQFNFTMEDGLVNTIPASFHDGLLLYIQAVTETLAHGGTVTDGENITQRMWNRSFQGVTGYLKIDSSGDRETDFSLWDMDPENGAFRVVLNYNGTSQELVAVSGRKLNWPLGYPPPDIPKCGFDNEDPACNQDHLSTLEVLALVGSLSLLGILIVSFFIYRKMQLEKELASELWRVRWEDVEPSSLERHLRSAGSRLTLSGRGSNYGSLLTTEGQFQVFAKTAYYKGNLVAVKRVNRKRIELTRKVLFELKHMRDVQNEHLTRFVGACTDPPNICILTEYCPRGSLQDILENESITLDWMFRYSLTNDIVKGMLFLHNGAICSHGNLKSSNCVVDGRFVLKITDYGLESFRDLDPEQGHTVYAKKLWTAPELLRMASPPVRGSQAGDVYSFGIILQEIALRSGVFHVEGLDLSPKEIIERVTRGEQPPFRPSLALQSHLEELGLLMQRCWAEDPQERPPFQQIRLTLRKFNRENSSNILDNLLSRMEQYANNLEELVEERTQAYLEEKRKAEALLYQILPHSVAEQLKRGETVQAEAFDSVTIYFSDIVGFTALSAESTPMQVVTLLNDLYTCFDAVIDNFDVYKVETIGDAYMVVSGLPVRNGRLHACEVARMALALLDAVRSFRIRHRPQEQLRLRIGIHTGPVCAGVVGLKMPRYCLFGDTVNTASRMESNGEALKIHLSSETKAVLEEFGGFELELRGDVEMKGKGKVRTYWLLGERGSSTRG
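HEK293 cells stably expressing human Npr1 and cGMP GloSensor pGS-40F, loaded 2 h with 2% GloSensor reagent, given compound 30 min at room temperature. Luminescence read before and 20 min after 0.1 nM hNppA.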
The depositor's hits bear a star; ? = inconclusive; [ ] = another dose, or the depositor's remark. % is scaled to controls: 0 for no effect and ±100 for the full control effect; potency is read from the fitted curve at half-maximal effect. Some of the compounds tested; rates above refer to the full screens.

SMILES	hNpr1 antagonist
CC(C)C(=O)N1CCC(CCOc2ccccc2F)C1 (configuration not stated)	-20%
O=C(C1CC1)N1CCC2(CC1)NC(=O)N(c1cccc(Cl)c1)N2	-3%
CC(NC(=O)c1n[nH]c2ccccc12)C(=O)N1CCN(c2ccccn2)CC1 (configuration not stated)	-1%
CN1C(=O)C(CC(=O)NCc2noc(-c3c(F)cccc3F)n2)N(C)C1=O (configuration not stated)	-2%
CN(C)c1cc(=O)c2ccnc(-c3ccccc3F)c2o1	3%[70.6 µM]
COc1ccc(OC)c(NC(=O)CC2CCCCN(C)C2=O)c1 (configuration not stated)	-13%
Cc1ccc(S(=O)(=O)NC[C@H]2O[C@@H](CO)[C@@H](O)[C@H]2N2CCN(c3cccc(C(F)(F)F)c3)CC2)cc1	3%
CN1CCN(Cc2cnn(-c3cccc(Cl)c3)c2)CC1CCO (configuration not stated)	-2%
O=C1c2cc(N3CCOCC3)nc(-c3cccc(F)c3)c2CN1Cc1ccccc1	?
O=C(c1ccc(F)cc1)N1CCC2(CC1)Cc1ccccc1NC2=O	-1%[70.6 µM]
O=C1NC2(CCCN(C(=O)c3ccc4c(c3)OCO4)C2)COc2ccccc21 (configuration not stated)	-27%
COc1ccc(CC(=O)N2CC(c3nnc(C(C)C)o3)C3(CCOCC3)C2)cc1OC (configuration not stated)	5%
COc1ccccc1CNC(=O)[C@H]1CCC[C@H]1NC(=O)c1ccncc1	0%
CCC(=O)N1CCc2c(sc3ncnc(NCc4ccccc4)c23)C1	-15%
CNC(=O)[C@H]1C[C@H](Oc2ccccc2)CN1C(=O)CCc1ccc(OC)cc1	-1%
O=C(c1c[nH]c2ncccc12)N1CCC(N2CCCC2)CC1	0%[70.6 µM]
CC(C)c1ccc(NC(=O)C2CCN(c3cc(C(F)(F)F)ncn3)CC2)cc1	7.1µM*
CN1[C@@H](CCC(=O)N2CCC(O)CC2)CNC(=O)[C@@H]2[C@H]1CCN2Cc1ccc(O)cc1	5%[70.6 µM]
O=C([C@@H]1C[C@H](F)CN1C(=O)NCc1ccc(OC(F)(F)F)cc1)N1CCCCC1	2%
CCOc1ccccc1C(=O)NC1CCN(c2cnn(C)c(=O)c2)CC1	-21%
COc1ccc(-c2noc([C@@H]3CCCN3C(=O)c3ccc(F)c(Cl)c3)n2)cc1OC	3%
Cc1ccc(C(=O)N2CCC3(CC2)CCN(Cc2cccs2)c2ccccc2O3)cc1	2%
Cc1csc(NC(=O)[C@@H]2CCC[C@@H](NCc3cccnc3)CN(C)C(=O)C2)n1	1%[70.6 µM]
CCOc1cc(CN(C)C(=O)CC2C(=O)NCCN2Cc2ccccc2)ccc1OC (configuration not stated)	5%
O=C(Nc1ccc2c(c1)CCC2)C1CCN(C(=O)c2ncn3c2COC(c2ccc(F)cc2)C3)CC1 (configuration not stated)	1%
The listing continues.
SMILES	hNpr1 antagonist
COC[C@@H]1CN(Cc2cc(F)c(F)c(F)c2)C[C@H]1C(N)=O	3%
COc1ccc(C(=O)N2CCn3c(nnc3[C@@H]3C[C@@H](O)CN3C(C)C)C2)cn1	11%
Cc1noc([C@H]2CCN(C(=O)NCc3ccc(F)cc3)C[C@H]2NC(=O)C2CC2)n1	1%
Cc1nc(C2CC(O)C2)cc(N2CCN(c3nc4ccccc4s3)CC2)n1 (configuration not stated)	7.1µM*
CNC(=O)[C@@H]1CN(C(=O)Cn2ccnc2C)C[C@H]1c1nc(COC)no1	5%
CS(=O)(=O)N[C@@H]1[C@@H](NC(=O)c2scc3c2CCCC3)[C@H]2CCO[C@H]21	3%
Cc1cc(C(=O)N2CCn3nc(C(=O)Nc4ccccc4)cc3C2)cc(=O)[nH]1	0%
COc1cncc(CN2CCC3(CC2)OC(=O)N(Cc2csc(C)n2)C3(C)c2ccccc2)c1 (configuration not stated)	5%
CN(C)c1ccc(CN2CCOC[C@H]2c2ncc(-c3ccc(F)cc3)[nH]2)cc1	-10%[70.6 µM]
COc1ccc(C2Cn3cnc(C(=O)N4CCC(C(=O)Nc5ccc(C)c(F)c5)CC4)c3CO2)cc1 (configuration not stated)	-18%
CC(C)(C)c1ccc(C(=O)N2C[C@@H](CO)[C@H](c3ccncc3)C2)cc1	0%
Cc1cc(C)n(CCC(=O)NCCC2CCN(C(=O)Nc3ccccc3)CC2)n1	-9%
COc1ccc(-c2nnc3n2CCN([S+](=O)([O-])c2ccccc2)C3)cc1	1%
c1coc(-c2nc(C3CCOC3)nn2C2Cc3ccccc3C2)c1 (configuration not stated)	2%
COCCC(=O)N1CC(F)(F)C[C@H]1c1nc(-c2ccncc2)no1	1%
Cc1nc(CN2C[C@H](C(=O)NCc3cccc(F)c3)C[C@@H]2c2ccc(F)cc2)cs1	-2%[70.6 µM]
c1coc(-c2nnc([C@H]3CCN(C4CCOCC4)C3)o2)c1	-2%[70.6 µM]
Cc1cc(C)cc(C(=O)NCc2nnc3cc(-c4nc(C5CC5)no4)ccn23)c1	2%
Cc1cc(S(=O)(=O)N2CCC(n3cnnc3C)CC2)ccc1F	-2%
COCCn1c2c(c(=O)n1-c1ccccc1)CCN(C(=O)c1cc3ccccc3[nH]1)C2	-1%[70.6 µM]
CC(C)CN1CCC(c2nc3ccc(F)cc3c(=O)[nH]2)CC1	-1%[70.6 µM]
N#Cc1ccc(CN2C[C@@H]3C[C@H]2C(=O)Nc2ccccc2O3)cc1	-17%[70.6 µM]
O=C1NCCCCCN(C(=O)c2ccsc2)[C@H]2CCC[C@@H]12	2%
CCc1noc(-c2cccn3c(CNC(=O)Cc4ccc(Cl)cc4)nnc23)n1	-10%
CCN1C(=O)C2(CCN(S(=O)(=O)c3ccc(CC(C)C)cc3)CC2)c2ccccc21	4%
More results
SMILES	hNpr1 antagonist
CNc1ccnc(N2CCC(C(=O)O)(n3cnc4ccccc43)CC2)n1	4%
Cc1nc(CCNC(=O)C2CCC2)no1	0%
COCCn1ncc(N2CCC(C(=O)Nc3cc(OC)cc(OC)c3)C2)cc1=O (configuration not stated)	-10%
Cc1ccc2c(C(=O)N3CCCC(C#N)C3)cc(-c3cnn(C(C)C)c3)nc2c1 (configuration not stated)	-1%
C[C@@H]1C(=O)O[C@H]2[C@H]1CC[C@@]1(C)Cc3sc(NC(=O)c4ccncc4)nc3[C@@H](C)[C@H]21	?
CS(=O)(=O)c1ccc(OC[C@H]2C[C@@H](NC(=O)c3cnccn3)[C@H](O)[C@@H]2O)cc1	3%
CC1CCN(S(=O)(=O)N2CCC(C(=O)N3CCC(Cc4nncn4CC4CC4)CC3)CC2)CC1	2%
CCO[C@H]1C[C@@H](O)C12CCN(C(=O)c1cc3nc(C)cc(C)n3n1)CC2	1%
Cc1cc(=O)[nH]c(CCNC(=O)c2ccc(C)c(N3CCNC3=O)c2)n1	-5%
COC[C@@H]1CN(C(=O)Cc2c(F)cccc2Cl)C[C@H]1C(N)=O	5%
C[C@H]1[C@@H]2[C@@H](O)C([C@H](C)C(=O)N3CCc4ccccc4C3)CC[C@@]2(C)CC[C@@H]1NC(=O)c1cnccn1 (some centres not stated)	-9%
Cn1cccc1C(=O)N1CCn2c(nnc2[C@@H]2C[C@@H](O)CN2Cc2ccccc2)C1	1%
CCN1CCN(CC(=O)NCc2cc(N3CCOCC3)ncn2)CC1	2%
O=C(COc1ccc(F)cc1F)N1C[C@H]2CC=CC[C@H]2C1	5%
CCn1cnnc1CC1CCN(C(=O)c2ccccc2)CC1	-1%
CCN1c2cc(C(=O)Nc3cccc(C(F)(F)F)c3)ccc2C(=O)N2CCCCCC21 (configuration not stated)	-15%
CSc1ccccc1NC(=O)c1cnc(-c2ccc(C)cc2)nc1-c1ccncc1	-17%
Cc1noc2c(Nc3ccc(C(N)=O)cc3)cc(-c3ccc(F)cc3)nc12	-4%[70.6 µM]
Cc1ccc(S(=O)(=O)N2[C@@H]3CC[C@H]2CC(NC(=O)c2ccncc2)C3)c(C)c1 (some centres not stated)	1%
COCC1CN(C(C)=O)CC12CCN(C(=O)C1CC=CCC1)CC2 (configuration not stated)	3%
Cc1noc(C)c1CN1CCc2nc(C(=O)NCCOc3ccccc3)oc2CC1	?
O=C(c1ccccc1OCC1CCCN(Cc2ccncc2F)C1)N1CCOCC1 (configuration not stated)	-13%
CC(C)OCCCNC(=O)CC1=C2CCCCC2N(C(C)C)C1=O (configuration not stated)	1%
CN1CCN(Cc2cc(F)cc(Cl)c2)CC12CCNC(=O)CC2 (configuration not stated)	1%
Cc1oc(C(O)c2ccccc2F)nc1C(=O)Nc1ccc(C(N)=O)cc1 (configuration not stated)	?

Reformatted: 13 of the compounds above.
| molecule | hNpr1 antagonist |
| --- | --- |
| Cc1cc(=O)[nH]c(CCNC(=O)c2ccc(C)c(N3CCNC3=O)c2)n1 | -5% |
| COC[C@@H]1CN(C(=O)Cc2c(F)cccc2Cl)C[C@H]1C(N)=O | 5% |
| C[C@H]1[C@@H]2[C@@H](O)C([C@H](C)C(=O)N3CCc4ccccc4C3)CC[C@@]2(C)CC[C@@H]1NC(=O)c1cnccn1 (some centres not stated) | -9% |
| Cn1cccc1C(=O)N1CCn2c(nnc2[C@@H]2C[C@@H](O)CN2Cc2ccccc2)C1 | 1% |
| CCN1CCN(CC(=O)NCc2cc(N3CCOCC3)ncn2)CC1 | 2% |
| O=C(COc1ccc(F)cc1F)N1C[C@H]2CC=CC[C@H]2C1 | 5% |
| CCn1cnnc1CC1CCN(C(=O)c2ccccc2)CC1 | -1% |
| CCN1c2cc(C(=O)Nc3cccc(C(F)(F)F)c3)ccc2C(=O)N2CCCCCC21 (configuration not stated) | -15% |
| CSc1ccccc1NC(=O)c1cnc(-c2ccc(C)cc2)nc1-c1ccncc1 | -17% |
| Cc1noc2c(Nc3ccc(C(N)=O)cc3)cc(-c3ccc(F)cc3)nc12 | -4%[70.6 µM] |
| Cc1ccc(S(=O)(=O)N2[C@@H]3CC[C@H]2CC(NC(=O)c2ccncc2)C3)c(C)c1 (some centres not stated) | 1% |
| COCC1CN(C(C)=O)CC12CCN(C(=O)C1CC=CCC1)CC2 (configuration not stated) | 3% |
| Cc1noc(C)c1CN1CCc2nc(C(=O)NCCOc3ccccc3)oc2CC1 | ? |

Remaining list, next part.
SMILES	hNpr1 antagonist
O=C(NCCc1ccc(Cl)cc1)c1nc(-c2ccc(Cl)cc2)c2ccccn12	-1%
COc1ccc(CN[C@@H]2CO[C@H](CNC(=O)NC(C)C)[C@H]2O)cc1	-8%[70.6 µM]
CC1(C(=O)NCc2cnccn2)CN(Cc2ccccc2)Cc2ccc(Nc3ccccc3)nc21 (configuration not stated)	-2%
Cc1cc(C(=O)N[C@@H]2CN(Cc3cccnc3)C[C@H]2CN(C)C)no1	-3%
Cc1ncc(C(=O)NCc2ccc3[nH]c(-c4ccccc4F)c(C)c3c2)c(C)n1	7.9µM*
NCC(=O)N1CCC(n2nccc2NC(=O)c2cccc(F)c2)CC1	2%
CN(C)C(C(=O)N1CCN(C2CCCC2)C(=O)C1)c1cccc(F)c1 (configuration not stated)	1%
CCOCCCNC(=O)N1C[C@@H](Oc2cccnc2)C[C@@H]1C(=O)NC	-7%
COc1ccc(NC(=O)Cn2c(C)cc3nc4n(c(=O)c32)CCCCC4)c(OC)c1	-13%
CCN(Cc1ccncc1)C(=O)[C@@H]1C[C@@H](O)CN1C1CCN(C(=O)c2cccc(OC)c2)CC1	3%
COC(=O)CNC(=O)C1CCN(C(=O)C2CN(c3ccc(OC)cc3)C(=O)N2)C1 (configuration not stated)	-6%
O=C(NCc1cccnc1)C1CN(S(=O)(=O)c2cccs2)CC12CCCCC2 (configuration not stated)	2%
CO[C@H]1[C@H](NC(=O)Cc2ccccc2)c2ccccc2C12CCN(C(=O)COc1ccccc1)CC2	5%
O=C(N[C@H]1CO[C@H]2[C@@H]1OC[C@@H]2Nc1nccc(-c2cccc(F)c2)n1)c1cccs1	4%[70.6 µM]
O=C(c1cn2cc(-c3ccccc3Cl)n(CC3CC3)c(=O)c2n1)N1CC[C@@H](O)C1	1%
COCCOc1ccc2c(n1)CCN(C(=O)Cc1ccc(F)cc1)C2	-1%
COc1cccc(NC(=O)N[C@H]2[C@H](O)[C@@H](N3CCN(c4ccccc4)CC3)[C@@H]3OC[C@H]2O3)c1	0%
COc1ccccc1NC(=O)c1cc2c(s1)CN(C(C)C)C2	-2%
CC1CCC(NC(=O)CN2C(=O)NC3(CCS(=O)(=O)CC3)C2=O)CC1 (configuration not stated)	4%
O=C1NCCCCCCN(C(=O)c2cc(C3CC3)[nH]n2)[C@H]2CCCC[C@@H]12	-7%
O=C(CCC1CCCN(Cc2cccn2-c2ccccn2)C1)Nc1ccccc1F (configuration not stated)	1%
COc1ccc(C(=O)N[C@@H]2CCC[C@@H]2C(=O)NCCOc2ccccc2OC)cc1	0%
CCO[C@H]1CN(C(=O)CCS(=O)(=O)c2ccccc2)C[C@@H]1O	2%
COc1ccc(CN2C(=O)CO[C@H](c3ccc(NS(=O)(=O)c4ccccc4)cc3)[C@H]2CO)cc1	-2%
CCn1c(CO)nnc1C1CC(NC(=O)Cc2c[nH]c3ccccc23)C1 (configuration not stated)	-2%
Next part.
SMILES	hNpr1 antagonist
CC(C)N(CC1CC1)C(=O)CC1COc2ccc(C(=O)N(C)C)cc2N1C (configuration not stated)	0%
CCc1ccc(CNc2ncncc2-c2nc(-c3ccccc3)no2)cc1	-5%
CC(=O)NC1(C)CCN(Cc2ccccc2-c2ccccc2Oc2ccccc2)C1 (configuration not stated)	-18%[70.6 µM]
CC1(C)CN(C(=O)c2coc(COc3ccc4c(c3)OCO4)n2)CCO1	2%
CCCNC(=O)CCN(CCCOC)C(=O)c1cc(C)oc1C	2%
CN(C(=O)c1ccc2oc(Cc3ccc(Cl)cc3)nc2c1)[C@H]1COC[C@@H]1O	5%

Screening results: PubChem, National Center for Advancing Translational Sciences (NCATS)
